BJeLR lethal = BJeLR cell viability loss; BJeLR (HRASV12) viability, CellTiter-Glo ATP luminescence, 48 h; reference of the scale not given here; inhibition, % (concentration not given with the values); 300,000 tested, 0.17% active; AID 1554;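 active means replicate mean above 50%; inconclusive means above 50% but judged a plate artefact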;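 further: 50 nL library stock added to about 25 µL; numbers are from one replicate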
PrP UTR inh = suppresses PrP 5' UTR mRNA reporter expression; cell-based PrP 5' UTR mRNA reporter, plate reader; inhibition, % (test concentration not listed); 340,000 tested, 0.35% active; AID 488862;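 active means every replicate at 50% or more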;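 further: 0 = median of the neutral control wells; tested in H4 reporter cells; numbers are from one replicate; inactives centre near -14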
ugtP null kill = compounds lethal to S. aureus RN4220 ugtP deletion mutant; OD600 growth, 16 h; some inactives read as strong as hits; growth inhibition, % (no concentration beside the values); 330,000 tested, 0.54% active;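 active means z-score under -3 and OD600 up to 0.15 on both plates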;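 further: plate controls were untreated wells for no effect and antibiotic for full effect; wells of about 80 µL received 100 nL stock; the first replicate is given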
Mtb hypoxia inh = inhibitors of hypoxia-regulated fluorescent reporter in Mycobacterium tuberculosis; 300,000 tested, 0.1% active; AID 1159583; M. tuberculosis hypoxia-regulated fluorescent reporter, fluorescence; fluorescence inhibition, % (no concentration beside the values);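 active means 35 to 45% if threefold the growth effect, above 45% if 1.5-fold the growth effect; inactive means the rest, general growth blockers included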;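 further: wells of about 50 µL received 100 nL stock; 0% = vehicle wells and 100% = reference inhibitor wells; whole bacteria with a GFP reporter of the hypoxia response; strong numbers were not always called active; many hits fall short of the cut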
RN4220 kill = kills Staphylococcus aureus RN4220. S. aureus RN4220 growth, OD600, 16 h. inhibition, % (no concentration beside the values). 330,000 tested, 0.33% active. AID 1259311;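 active means z-score of -3 or lower and OD600 up to 0.18 on both plates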;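 further: plate controls were untreated cells for no effect and reference antibiotic for full effect; stock transfer was 100 nL into about 80 µL; one replicate is shown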
Bead autofluor = counter-screen for toxin protease inhibitors: compound fluorescence; compound autofluorescence counterscreen, microsphere flow cytometry; hits give high values; fluorescence intensity (concentration not given with the values); 360,000 tested, 3.1% active;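 active means at least 3 SD above the mean of all compounds, about 16000 in these data; inconclusive means too few beads counted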;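 further: 100 nL of 1 mM stock went into each well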
Mtb hypoxia inh growth = recorded beside Mtb hypoxia inh, whose call it bears; growth inhibition, %; measured here: M. tuberculosis growth (absorbance);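 0% = vehicle and 100% = reference antibiotic; read after six days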
Numbers without * were called inactive; ? = inconclusive; nt = no result given; & = joins results of further samples. Hits appear at their usual frequency; overall some 4% were active at least once.

Start of the data: the first 2 entries, to show the layout:
Results follow in this order: ugtP null kill	PrP UTR inh	Bead autofluor	Mtb hypoxia inh growth	BJeLR lethal	RN4220 kill	Mtb hypoxia inh
- COc1ccc(CCNC(=O)C(=O)Nc2ccc3nc4n(c(=O)c3c2)CCCCC4)cc1OC
    2	-70	4484	14	0	6.8	10
- CCOC(=O)C1[C@H]2C(=O)N(C(C)c3ccc(OC)cc3)C[C@]23C=C[C@H]1O3 (some centres not stated)
    3	-23	9782	9	-1	6.4	6

This part in full, repeating the preview:
Results follow in this order: ugtP null kill	PrP UTR inh	Bead autofluor	Mtb hypoxia inh growth	BJeLR lethal	RN4220 kill	Mtb hypoxia inh
- COc1ccc(CCNC(=O)C(=O)Nc2ccc3nc4n(c(=O)c3c2)CCCCC4)cc1OC
    2	-70	4484	14	0	6.8	10
- CCOC(=O)C1[C@H]2C(=O)N(C(C)c3ccc(OC)cc3)C[C@]23C=C[C@H]1O3 (some centres not stated)
    3	-23	9782	9	-1	6.4	6
- COc1ccccc1CN1CCCC(C(=O)N2CCCCC2)C1 (configuration not stated)
    3	-20	4392	7	-5	1.9	-4
- CCn1nccc1C(=O)Nc1ccc(S(=O)(=O)NC23CC4CC(CC(C4)C2)C3)cc1
    -6	-14	4850	nt	nt	8.5	nt
- CCOc1ccc(CCNC(=O)CSC(=S)N2CCCC2)cc1OCC
    nt	-10	6102	nt	-8	nt	nt
- CCCO/N=C1/C(=O)N(c2ccccc2)c2ccccc21
    nt	-17	2496	nt	7	nt	nt
- CCOC(=O)c1[nH]c(COC(=O)CCCOc2ccccc2)c(C(=O)OCC)c1C
    -13	nt	nt	8	3	2.1	2
- O=C(CSc1nnnn1-c1ccc(F)cc1F)Nc1ccccc1F
    -4	-64	3554	1	-6	4.3	12
- NS(=O)(=O)c1ccc(NC(=O)CCCCCN2C(=O)c3ccccc3C2=O)cc1
    -1	-7	?	0	nt	2.0	-5
- Cn1c(C(=O)O)c(S(=O)(=O)c2ccc(Cl)cc2)c2ccccc21
    0	-19	3729	6	9	-1.0	2
- NC(=O)NCCC1=CCCCC1
    6	-24	10130	2	-11	1.6	6
- COc1cc(C(=O)NC(CCSC)C(=O)OCC(=O)NC(=O)C2CCCCC2)cc(OC)c1OC (configuration not stated)
    7	-31	4670	3	-4	6.7	8
- CC(=O)NCCSc1ccc(S(=O)(=O)N2CCCC2)cn1
    4	-12	8585	7	nt	1.6	11
- COc1ccc(NC(=O)CN(c2ccccc2C)S(C)(=O)=O)c(OC)c1
    2	3	3283	4	-3	4.1	-4
- O=C(Cc1ccc(F)cc1)N/N=C/c1ccc(-c2ccc(Cl)c(C(=O)O)c2)o1
    nt	-22	4974	nt	-2	nt	nt
- OC(c1ccccc1)(c1ccccc1)c1nccc2ccccc12
    12	-21	3860	4	nt	9.5	7
- O=[N+]([O-])c1cccc(-c2cn3nc(-c4ccccc4)c(-c4ccccc4)nc3n2)c1
    29	-6	4123	-9	-5	-4.1	-3
- Cc1ccc(NC(=O)N2C(=O)C3(OCCO3)c3ccccc32)cc1
    -2	-55	2358	nt	-5	1.6	nt
- O=C(O)COc1ccc(=O)n(-c2ccccc2)n1
    0	-10	4495	nt	-3	-0.5	nt
- O=C(NN=C/C(Br)=C\c1ccccc1)c1n[nH]c2c1CCC2
    -17	nt	nt	6	nt	10	7
- O=S(=O)(c1ccc(Br)cc1)c1nc(-c2ccccc2)oc1N1CCOCC1
    0	-7	?	5	-6	-3.5	1
- NC(=O)c1cc([N+](=O)[O-])ccc1NCc1ccc(F)cc1
    1	-7	3069	4	nt	5.1	20
- OCCC1CC(O)C(O)[C@@]2(Cc3ccccc3O2)O1 (some centres not stated)
    2&-4&-3&-3	nt	nt	14&2&5&1	nt	4.0&-0.1&-2.3&5.9	18&-8&-7&0
- COc1ccc(CNc2cccc3[nH]c(C(F)(F)F)nc23)cc1OC
    nt	-2	3784	nt	8	nt	nt
- CN(C)c1ccc(C=NCC2COc3ccccc3O2)cc1 (configuration not stated)
    18	-9	4593	4	3	7.2	3
- COc1ccc(NC(=O)C(CC(C)C)NC(=O)C2CCCCC2)c(OC)c1 (configuration not stated)
    -6	-2	4446	-2	-4	2.2	-3
- CCOC(=O)N1CCN(C(=O)C2CCCN(S(=O)(=O)c3ccc(C)cc3)C2)CC1 (configuration not stated)
    -3	-34	10121	9	4	1.7	3
- Cc1cccc2sc(N(CCCN3CCOCC3)C(=O)CS(=O)(=O)c3ccc(F)cc3)nc12
    1	-44	?	-2	3	1.1	-2
- COc1ccccc1NC(=O)Nc1ccc(Cl)c(S(=O)(=O)Nc2ccccc2OC)c1
    0	-4	2404	4	2	-8.5	3
- CC(C)(C)C1CCC(C(=O)OCC(=O)Nc2ccc3[nH]c(=O)[nH]c3c2)CC1 (configuration not stated)
    8	2	2068	0	5	7.1	-6
- CC1=NN(c2ccccc2)C(=O)C1(C)[N+](=O)[O-] (configuration not stated)
    1	-22	7943	-5	-10	3.8	3
- O=C(NCCSc1ncc(-c2ccccc2)[nH]1)c1ccco1
    3	-28	?	7	-16	2.5	10
- COc1ccc(S(=O)(=O)N2CCN(C(=O)COc3ccc(C)c(C)c3)CC2)cc1OC
    0	-10	4154	3	-1	-0.5	3
- Cn1nc(CC(=O)NCc2ccc(C(F)(F)F)cc2)c2ccccc2c1=O
    4	-21	3324	8	-6	7.3	7
- CCCCCCCCCC(=O)N[C@@H]1c2cc(OC)c(OC)cc2C[C@H]1O
    12	-22	3086	3	nt	1.9	2
- COCC(=O)Nc1nnc(-c2ccc(C(C)(C)C)cc2)s1
    8	-58	4046	3	-3	2.7	13
- CCC(=O)N(C(=O)CC)N1CCN(c2ccncc2S(=O)(=O)N2CCCCC2)CC1
    1	-18	6027	5	-1	-1.1	7
- O=C(/C=C/c1ccccc1)Nc1nnc(SCC(=O)c2ccc3ccccc3c2)s1
    -10	-17	7517	6	nt	18	-2
- Cc1ccccc1NC(=O)COc1ccc2oc(=O)cc(C)c2c1
    5	-14	2642	5	3	-0.2	14
- Cc1nn(Cc2ccccc2Cl)c(Cl)c1C(=O)OCC(=O)NC(=O)NC1CCCCC1
    18	3	1887	7	-4	-0.1	1
- N=c1c(S(=O)(=O)c2ccc(Br)cc2)cc2c(=O)n3ccccc3nc2n1CCN1CCOCC1
    2	-19	4381	2	nt	3.1	-7
- COc1ccc([N+](=O)[O-])cc1N1C(=O)c2cccnc2C1=O
    7	-17	nt	1	-2	3.3	17
- CCN1CCN(C(CNS(=O)(=O)c2ccccc2)c2ccccc2)CC1 (configuration not stated)
    1	-18	5957	2	1	1.7	-2
- Cc1ccc(C(=O)Nc2ccccc2C(=O)NC(Cc2ccccc2)C(=O)O)cc1 (configuration not stated)
    -6	-24	2293	9	3	4.0	-1
- O=C(O)CCCC(=O)NCCc1cccc(Cl)c1
    -1	-8	3175	13	-3	3.8	5
- Cc1ccc(NS(=O)(=O)c2cccc(C(=O)NN=Cc3c(C)nn(-c4ccccc4)c3N3CCCC3)c2)c(C)c1
    -7	nt	nt	12	nt	3.8	11
- CCC(C)c1c(O)nc(SCc2ccccc2)[nH]c1=O (configuration not stated)
    0	-18	11776	13	2	3.2	5
- Cn1c(Cn2nnc3ccccc32)nnc1SCC(=O)Nc1nccs1
    -1	-9	2377	8	7	1.9	6
- CCc1ccc(-c2nc(CS(=O)CC(=O)NCCN3CCCCCC3)c(C)o2)cc1 (configuration not stated)
    -1	-10	6282	11	7	-0.8	1
- CC(=O)Nc1cccc(NC(=O)c2csc(C)c2)c1
    1	-6	?	0	-6	3.0	9
- CSCc1ccc(C(=O)NCCSc2ccc(Br)cc2)cc1
    14	-65	5431	11	1	-0.1	15
- O=C(Nc1nnc(CC2=CCCCC2)s1)c1cccs1
    1	-41	4758	nt	-3	-2.3	nt
- COC(=O)NN=C(C)c1ccco1
    4	nt	nt	0	nt	3.1	-5
- CCC(NC(C)C)C(O)c1ccc(O)c(O)c1 (configuration not stated)
    nt	-11&-4	5875	nt	-4	nt	nt
- Cc1ccc2nc(C)c3c(c2c1)OC(C(C)(Cl)Br)C3 (configuration not stated)
    14	-9	4300	5	0	-0.3	1
- COc1cc(S(=O)(=O)N2CCCCC2)ccc1NC(=O)Cc1ccccc1
    -7	-20	11582	4	8	-4.1	-2
- CN(N=Cc1ccccc1)C(=S)c1ccccc1
    1	nt	nt	5	nt	2.6	3
- O=C(COC(=O)c1ccco1)Nc1nc2ccccc2s1
    4	-7	3193	8	2	-0.1	4
- CC(C(=O)N1CCCc2c1c(=O)oc1ccc(O)cc21)N1CCc2ccccc2C1 (configuration not stated)
    -7	-17	3698	nt	-2	8.0	nt
- CSc1ncc(-c2ccccc2)cn1
    3	-33	5029	-5	2	14	15

(more compounds)
Results follow in this order: ugtP null kill	PrP UTR inh	Bead autofluor	Mtb hypoxia inh growth	BJeLR lethal	RN4220 kill	Mtb hypoxia inh
- O=C1CCOc2cc(OCc3ccccc3)ccc21
    -2	-35	21171*	12	-2	8.5	7
- O=C(N/N=C/c1ccsc1)c1c[nH]c2ccccc12
    nt	-31	5572	nt	3	nt	nt
- Cn1cccc1-c1cc(C(=O)N/N=C/c2ccc(Cl)cc2)[nH]n1
    nt	-5	4256	nt	-8	nt	nt
- Cc1cc(OCCNCCO)cc(C)c1Cl
    6	-19	2441	nt	-1	-6.5	nt
- O=C(COc1nsnc1N1CCOCC1)Nc1ccccc1Cl
    3	-19	5679	1	2	3.4	2
- Cc1cccnc1NC(=O)c1ccc(Cl)c(S(=O)(=O)N2CCCCCC2)c1
    2	-1	6188	-1	-1	2.4	-6
- O=C(COC(=O)CCc1ccc(S(=O)(=O)N2CCOCC2)cc1)Nc1ncc(C(F)(F)F)cc1Cl
    -11	-25	25667*	5	-3	3.0	3
- CCOc1ccc(-n2nc3c(SCCN4CCCC4)nnc(C)c3c2C)cc1
    7	-17	5857	7	6	4.3	2
- CCC(C)c1ccc(NC(=O)c2cccnc2)cc1 (configuration not stated)
    10	-64	11035	6	-8	2.3	3
- CCC(C)Sc1ccc(-c2nc3cnccn3c2NC2CCCCC2)cc1 (configuration not stated)
    nt	-14	3866&6439	nt	0	nt	nt
- CC1=C(C#N)C(C=NOCc2ccc(F)cc2Cl)CC(=O)N1 (configuration not stated)
    3	nt	nt	3	nt	15	4
- COc1ccc(OC)c(NC(=O)CN(Cc2ccccc2)S(C)(=O)=O)c1
    12	-3	4165	5	-14	2.5	-1
- Cc1ccc(-c2noc(CCCC(=O)NC3CCCCC3)n2)cc1
    7	-36	4941	-2	4	3.7	6
- CC1CN(C(C)CO)C(=O)c2cccc(NC(=O)Nc3ccccc3)c2OC1CN(C)S(C)(=O)=O (configuration not stated)
    2	nt	nt	7	nt	2.5	17
- CN(C)CCCN(C(=O)c1ccc(C(=O)c2ccccc2)cc1)c1nc2cc3c(cc2s1)OCO3
    -8	16	4793	-7	5	-5.9	-6
- Cc1ccc(-n2c(NN)nc3ccccc3c2=O)c(C)c1
    7	5	1994	-8	3	7.3	12
- COC(=O)[C@@H](Cc1c[nH]c2ccccc12)NC(=O)C1CCCN(S(=O)(=O)c2ccc(C)cc2)C1 (some centres not stated)
    -3	-1	3468	1	-2	-0.6	-14
- O=C(c1cc(C(=O)NCc2ccccc2)c(=O)n(Cc2ccccc2)c1)c1cc(Br)ccc1O
    -23	3	1991	-8	-6	-13	-4
- CCOC(=O)c1ccc(N2C(=O)c3n[nH]c(C)c3C2c2ccccn2)cc1 (configuration not stated)
    6	-16	4388	-2	13	-4.1	6
- C[C@H](NC(=O)CCCn1nnc2ccccc2c1=O)C(=O)O
    0	-16	4590	8	0	3.5	-7
- Cc1cccc(C(=O)NCC(=O)N2CCCC2)c1
    2	-14	5404	-18	10	-0.2	-11
- Cc1ccc(C(C)C)c(OCC(=O)NCC(c2cccs2)N2CCOCC2)c1 (configuration not stated)
    -1	-5	?	-2	6	2.9	2
- O=C(Nc1ccccc1N1CCCC1)c1ccccc1Cl
    2	-48	4416	11	20	8.8	18
- CC1=C(C(=O)OC(C)C)C(C2CC=CCC2)NC(=O)N1 (configuration not stated)
    -13	-20	12841	-1	-4	0.1	-3
- COc1ccc(C=NNC(=O)c2ccc(O)cc2O)cc1CSc1ccccn1
    -2	nt	nt	9	nt	6.4	8
- Cn1cnnc1SCc1ccc(C#N)cc1Cl
    3	-21	10416	2	-4	2.2	14
